Vaccinia stage: blocks a specific stage of Vaccinia orthopoxvirus infection, primary screen, cell-based, single point. Vaccinia-infected cells, mCherry/Venus stage reporter fluorescence; active compounds read low; some inactives read as strong as hits. activity change (mCherry), % (no concentration beside the values). 0.01% of 89,000 active. AID 1053133, 2014;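 active = mCherry past -33% and 40 or more points under the early reporter, replicates agreeing; inconclusive = past -33% without that gap or agreement; tested in A549 cells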;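 also: scaled between vehicle wells and reference inhibitor wells; 23 nL library stock went into each well; one replicate is shown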
Vaccinia stage Venus: also measured in Vaccinia stage; calls as there; activity change (Venus), %; measured here: Venus reporter, other viral stage;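 negative = less Venus signal; first of two replicates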
* hit, by the source's call; ? = inconclusive; · = no result given; & = joins results of further samples. Some of the compounds tested; count on the stated rates, not on these rows.

SMILES | Vaccinia stage | Vaccinia stage Venus
C[C@@H]1CN([C@H](C)CO)C(=O)c2cc(NS(=O)(=O)c3ccc(F)cc3)ccc2O[C@@H]1CN(C)Cc1ccc2c(c1)OCO2 | 1 | 1
C[C@H]1CN([C@@H](C)CO)C(=O)c2cc(-c3ccccc3)cnc2O[C@H]1CN(C)C(=O)C1CCCCC1 | -7 | -15
C[C@H](CO)N1C[C@H](C)[C@H](CN(C)C(=O)CN(C)C)Oc2cc(C#Cc3ccc(F)cc3)ccc2S1(=O)=O | ? | ·
C[C@@H]1CCCCO[C@@H](CN(C)S(=O)(=O)c2cccs2)[C@@H](C)CN([C@H](C)CO)C(=O)c2cc(NS(C)(=O)=O)ccc2O1 | 18 | 1
C[C@@H]1CN([C@@H](C)CO)C(=O)Cc2cc(NC(=O)Cc3ccccc3)ccc2O[C@@H]1CN(C)Cc1ccc(Oc2ccccc2)cc1 | ? | ·
COc1ccc(CN2CC3(CN(C(=O)Cc4ccccc4)C3)c3c([nH]c4cc(OC)ccc34)[C@@H]2CO)cc1 | 9 | 7
Cc1noc(C)c1NC(=O)N(C)C[C@@H]1Oc2ccc(NC(=O)CCN3CCOCC3)cc2CC(=O)N([C@@H](C)CO)C[C@H]1C | -11 | 6
O=C(N[C@H]1CC[C@H](CCNS(=O)(=O)c2ccc(F)cc2)O[C@@H]1CO)C1CCC1 | 2 | 3
CC(C)NC(=O)N(C)C[C@@H]1Oc2ccc(NS(C)(=O)=O)cc2C(=O)N([C@H](C)CO)C[C@@H]1C | 4 | 3
CN(C)CC#Cc1ccc([C@@H]2[C@@H](CO)N3CCCCN(C(=O)NC4CCCC4)C[C@@H]23)cc1 | -3 | -7
COc1ccc2c3c([nH]c2c1)[C@@H](CO)N(C(=O)Nc1ccccc1F)CC31CN(C(C)=O)C1 | 22 | 12
C[C@H](O)C#Cc1ccc2c(c1)O[C@H](CN(C)Cc1ccncc1)[C@H](C)CN([C@@H](C)CO)S2(=O)=O | 4 | 8

Reprinted at random: 5 records from the list
SMILES | Vaccinia stage | Vaccinia stage Venus
C[C@H]1CN([C@@H](C)CO)C(=O)c2cc(-c3ccccc3)cnc2O[C@H]1CN(C)C(=O)C1CCCCC1 | -7 | -15
C[C@H](O)C#Cc1ccc2c(c1)O[C@H](CN(C)Cc1ccncc1)[C@H](C)CN([C@@H](C)CO)S2(=O)=O | 4 | 8
COc1ccc2c3c([nH]c2c1)[C@@H](CO)N(C(=O)Nc1ccccc1F)CC31CN(C(C)=O)C1 | 22 | 12
Cc1noc(C)c1NC(=O)N(C)C[C@@H]1Oc2ccc(NC(=O)CCN3CCOCC3)cc2CC(=O)N([C@@H](C)CO)C[C@H]1C | -11 | 6
O=C(N[C@H]1CC[C@H](CCNS(=O)(=O)c2ccc(F)cc2)O[C@@H]1CO)C1CCC1 | 2 | 3

Other structures:
SMILES | Vaccinia stage | Vaccinia stage Venus
C[C@H](CO)N1C[C@H](C)[C@H](CN(C)Cc2ccc(-c3ccccc3)cc2)Oc2c(NS(C)(=O)=O)cccc2C1=O | -14 | -12
CC(C)NC(=O)N(C)C[C@H]1OCCCC[C@@H](C)Oc2ccc(NC(=O)Cc3ccccc3)cc2C(=O)N([C@@H](C)CO)C[C@H]1C | 16 | -6
C[C@@H]1CN([C@H](C)CO)S(=O)(=O)c2ccc(C#Cc3ccc(F)cc3)cc2O[C@@H]1CN(C)C(=O)c1ccccn1 | ? | ·
COc1ccc2c3c([nH]c2c1)[C@@H](CO)N(C(=O)Nc1ccc(F)cc1)CC31CCN(C(=O)c2ccccn2)CC1 | 15 | 10
C[C@@H]1CN([C@H](C)CO)C(=O)c2cccc(NC(=O)c3nc4ccccc4s3)c2O[C@H]1CN(C)C(=O)Nc1ccc(F)cc1 | 7 | -1
CCC(=O)N1C[C@@H](C)[C@H](OC)CN(C)C(=O)c2cc(NC(=O)Nc3ccc(Cl)cc3)ccc2OC[C@@H]1C | -8 | -8
C[C@H](CO)N1C[C@H](C)[C@@H](CN(C)C(=O)Nc2cccc3ccccc23)OCCCC[C@H](C)Oc2ccc(NC(=O)c3ccncc3)cc2C1=O | ? | ·
O=C(C[C@@H]1CC[C@@H]2[C@H](COC[C@@H](O)CN2Cc2ccc(Oc3ccccc3)cc2)O1)N1CCCCC1 | ? | ·
COc1ccc(S(=O)(=O)Nc2ccc3c(c2)C(=O)N([C@H](C)CO)C[C@H](C)[C@@H](CN(C)S(=O)(=O)c2cccs2)OCCCC[C@@H](C)O3)cc1 | -14 | -15
COc1ccc(NC(=O)Nc2ccc3c(c2)C(=O)N([C@H](C)CO)C[C@@H](C)[C@H](CN(C)Cc2ccncc2)O3)cc1 | 14 | 4
CC(C)C(=O)Nc1ccc2c(c1)C(=O)N(C)[C@H]1CC[C@H](CC(=O)O)O[C@H]1CO2 | 6 | 1
C[C@@H]1CN([C@@H](C)CO)C(=O)c2cc(C#Cc3ccccc3F)cnc2O[C@H]1CN(C)C(=O)C1CC1 | 19 | 2
CO[C@@H]1CN(C)C(=O)c2cc(NC(=O)NC3CCCCC3)ccc2OC[C@H](C)N(C)C[C@@H]1C | 5 | -2
CCCC#Cc1cnc2c(c1)C(=O)N([C@H](C)CO)C[C@@H](C)[C@@H](CN(C)S(C)(=O)=O)O2 | 4 | 3
O=S(=O)(c1cccs1)N1CCCCN2[C@H](CO)[C@H](c3ccc(Br)cc3)[C@@H]2C1 | -18 | -16
Cc1ccc(S(=O)(=O)N(C)C[C@H]2OCCCC[C@H](C)Oc3ccc(NC(=O)Nc4cccc5ccccc45)cc3C(=O)N([C@H](C)CO)C[C@@H]2C)cc1 | 8 | 15
COc1ccccc1NC(=O)N(C)C[C@@H]1Oc2ncc(C#CCC(C)C)cc2C(=O)N([C@H](C)CO)C[C@@H]1C | 7 | -14
CC(=O)N(C)C[C@H]1Oc2cc(C#Cc3cccnc3)ccc2S(=O)(=O)N([C@H](C)CO)C[C@H]1C | 32 | 7
COc1ccc(NC(=O)Nc2cccc3c2O[C@@H](CN(C)C(=O)NC2CCCCC2)[C@H](C)CN([C@@H](C)CO)C3=O)cc1 | 2 | -3
COCC(=O)N(C)C[C@H]1Oc2ncc(C#C[C@H](C)O)cc2C(=O)N([C@@H](C)CO)C[C@H]1C | 21&4 | 18&10
CCC(=O)NC[C@H]1[C@@H](c2ccc(-c3ccc(C#N)cc3)cc2)[C@@H](CO)N1CCC(F)(F)F | 13 | 10
C[C@H]1CN([C@@H](C)CO)C(=O)c2cccc(NC(=O)c3ccncc3)c2O[C@@H]1CN(C)Cc1ccc(C(F)(F)F)cc1 | 11 | 3
CCO[C@H]1OC(C(=O)N2CCCC2)=C[C@@H](c2ccc(C(F)(F)F)cc2)[C@@H]1CCCO | -11 | -1
Cc1ccc(S(=O)(=O)Nc2ccc3c(c2)CC(=O)N([C@@H](C)CO)C[C@H](C)[C@@H](CN(C)S(C)(=O)=O)O3)cc1 | 30 | 4
O=C(C[C@H]1C[C@@H]2c3cc(NC(=O)Nc4ccc(C(F)(F)F)cc4)ccc3O[C@@H]2[C@@H](CO)O1)NCc1ccc(Cl)cc1 | ? | ·
C[C@H](CO)N1C[C@H](C)[C@H](CN(C)C(=O)Cc2ccncc2)Oc2ncc(C3=CCCCC3)cc2C1=O | -7 | -10
Cc1ccccc1-c1ccc([C@@H]2[C@@H](CO)N3CCCCN(C(=O)Nc4cccc(F)c4)C[C@H]23)cc1 | ? | ·
COc1ccc(S(=O)(=O)N(C)C[C@@H]2Oc3ccc(NC(=O)CCC(F)(F)F)cc3C(=O)N([C@@H](C)CO)C[C@H]2C)cc1 | 15 | 2
COc1cccc(C#Cc2cnc3c(c2)C(=O)N([C@@H](C)CO)C[C@@H](C)[C@@H](CN(C)C(=O)C2CC2)O3)c1 | 8 | -12
CCCc1cn(CC[C@H]2CC[C@@H](NC(=O)CCN3CCCCC3)[C@@H](CO)O2)nn1 | 7 | 8
CO[C@@H]1CN(C)C(=O)c2cc(NS(C)(=O)=O)ccc2OC[C@H](C)N(CCC(F)(F)F)C[C@H]1C | 5 | 4
O=C(Nc1cc(F)ccc1F)N1C[C@@H]2[C@H](c3ccccc31)[C@@H](CO)N2CC1CCCC1 | -4 | 3
COc1ccc(S(=O)(=O)N[C@H]2C=C[C@H](CC(=O)O)O[C@@H]2CO)cc1 | 5 | 5
C[C@@H]1CN([C@H](C)CO)C(=O)c2cc(NC(=O)Nc3ccc4c(c3)OCO4)ccc2O[C@@H]1CN(C)Cc1ccc2c(c1)OCO2 | -11 | -3
COCC(=O)Nc1ccc2c(c1)OC[C@@H](C)N(C(=O)CC1CC1)C[C@H](C)[C@@H](OC)CN(C)C2=O | 7 | 5
C[C@@H]1CN([C@H](C)CO)S(=O)(=O)c2ccc(C3=CCCCC3)cc2O[C@@H]1CN(C)C(=O)Cc1ccncc1 | ? | ·

Part of the list above, comma-delimited:
Structure,Vaccinia stage,Vaccinia stage Venus
C[C@@H]1CN([C@H](C)CO)C(=O)c2cc(NC(=O)Nc3ccc4c(c3)OCO4)ccc2O[C@@H]1CN(C)Cc1ccc2c(c1)OCO2,-11,-3
O=C(C[C@H]1C[C@@H]2c3cc(NC(=O)Nc4ccc(C(F)(F)F)cc4)ccc3O[C@@H]2[C@@H](CO)O1)NCc1ccc(Cl)cc1,?,·

(cont.)
SMILES | Vaccinia stage | Vaccinia stage Venus
CC(C)NC(=O)Nc1cccc2c1O[C@H](CN(C)C)[C@@H](C)CN([C@@H](C)CO)C2=O | 18 | 8
O=C(C[C@@H]1CC[C@H]2[C@@H](COC[C@@H](O)CN2C(=O)Nc2ccc(Cl)c(Cl)c2)O1)NCc1ccc(Cl)c(Cl)c1 | ? | ·
CC(C)NC(=O)N1C[C@H]2[C@@H](c3ccccc31)[C@H](CO)N2C(=O)c1cccnc1 | 19 | 8
C[C@H]1CN([C@@H](C)CO)C(=O)Cc2cc(NS(=O)(=O)c3cccs3)ccc2O[C@@H]1CN(C)C | 1 | 4
C[C@@H]1CCCCO[C@@H](CN(C)C(=O)Cc2ccccc2)[C@H](C)CN([C@@H](C)CO)C(=O)c2cc(NC(=O)c3ccccc3)ccc2O1 | ? | ·
C[C@@H]1CCCCO[C@H](CN(C)S(=O)(=O)c2ccccc2)[C@@H](C)CN([C@@H](C)CO)C(=O)c2cc(NS(=O)(=O)c3ccccc3)ccc2O1 | -18 | -22
CC(=O)N1CC2(C1)[C@H](c1ccc(-c3ccc(C#N)cc3)cc1)[C@@H](CO)N2C(=O)C1CC1 | 1 | -1
C[C@@H]1CN([C@@H](C)CO)C(=O)c2cc(NS(=O)(=O)c3ccc(Cl)cc3)ccc2O[C@@H](C)CCCCO[C@@H]1CN(C)C(=O)Nc1ccc(F)cc1 | 17 | 10
COc1ccc2c3c(n(C)c2c1)[C@H](CO)N(C(=O)NC(C)C)CC31CCN(Cc2nccs2)CC1 | -12 | -13
CCN(C[C@H]1N[C@@H](CO)[C@@H]1c1ccc(-c2ccccc2)cc1)C(=O)COC | -3 | 1
CO[C@H]1CN(C)C(=O)c2cc(NC(=O)c3ccccc3)ccc2OC[C@@H](C)NC[C@H]1C | -1 | 7
Cc1cc(C(=O)Nc2cccc3c2O[C@@H](CN(C)Cc2ccc(Cl)c(Cl)c2)[C@@H](C)CN([C@H](C)CO)C3=O)n(C)n1 | -25 | -28
O=C(Cc1ccccc1)N1CCCCN2[C@@H](CO)[C@H](c3ccc(-c4ccccc4)cc3)[C@@H]2C1 | -31 | -22
CCCC(=O)N1CC2(C1)CN(C(=O)C1CC1)[C@@H](CO)c1[nH]c3cc(OC)ccc3c12 | 4 | -3
C[C@@H]1CN([C@@H](C)CO)C(=O)CCCn2nncc2CO[C@H]1CN(C)Cc1ccccc1C(=O)O | 12 | 9
COc1ccc(NC(=O)Nc2ccc3c(c2)C(=O)N([C@H](C)CO)C[C@H](C)[C@@H](CN(C)C(=O)Nc2ccc(C(F)(F)F)cc2)OCCCC[C@H](C)O3)cc1 | 4 | -5
C[C@H](CO)N1C[C@H](C)[C@H](CN(C)Cc2ccc(C(=O)O)cc2)Oc2ccc(NC(=O)Nc3ccc(C(F)(F)F)cc3)cc2CC1=O | 13 | 19
CCCC#Cc1ccc2c(c1)O[C@H](CN(C)Cc1ccccn1)[C@@H](C)CN([C@H](C)CO)S2(=O)=O | ? | ·
CN(C)CC(=O)N1[C@@H](CO)[C@@H](c2ccccc2)C12CN(Cc1cc(F)ccc1F)C2 | 13 | 13
C[C@@H]1CCCCO[C@@H](CN(C)Cc2ccncc2)[C@H](C)CN([C@@H](C)CO)C(=O)c2cc(N(C)C)ccc2O1 | 5 | 11
CN1C(=O)c2cc(NC(=O)C3CC3)ccc2OC[C@H]2O[C@H](CC(=O)NCCN3CCCC3)CC[C@H]21 | -1 | 6
COc1ccc(S(=O)(=O)Nc2ccc3c(c2)C(=O)N([C@@H](C)CO)C[C@@H](C)[C@H](CN(C)S(=O)(=O)c2ccccc2)OCCCC[C@@H](C)O3)cc1 | ? | ·
C[C@@H]1CN([C@@H](C)CO)C(=O)c2cc(NS(=O)(=O)c3ccc(F)cc3)ccc2O[C@H]1CN(C)Cc1ccccc1 | 10 | 3
C[C@H](CO)N1C[C@H](C)[C@H](CN(C)Cc2ccc(-c3ccccc3)cc2)Oc2ccc(NC(=O)Cn3cnnn3)cc2CC1=O | -17 | -18
C[C@@H]1CN([C@H](C)CO)C(=O)Cc2cc(NC(=O)CCC(F)(F)F)ccc2O[C@H]1CN(C)Cc1ccc(Cl)c(Cl)c1 | -22 | -16
O=C(C[C@H]1CC[C@@H]2[C@H](COC[C@H](O)CN2S(=O)(=O)c2cccc(Cl)c2)O1)N1CCOCC1 | 12 | 8
O=C(CN1CCOCC1)N[C@H]1CC[C@H](CCNC(=O)C2CCCC2)O[C@@H]1CO | 3 | 9
Cc1ccccc1S(=O)(=O)N(C)C[C@H]1OCc2ccccc2-c2c(n(C)c3ccccc23)C(=O)N([C@@H](C)CO)C[C@@H]1C | ? | ·
